TSHR agonist: qHTS Assay for Agonists of the Thyroid Stimulating Hormone Receptor; Thyrotropin receptor (Homo sapiens), P16473; HEK293-CNG-TSHR cells (CNG channel as cAMP sensor), membrane potential dye, cAMP; Potency, µM (top dose mostly 57.1 µM), for the others: at the highest dose activation, most hits filed as activators; hit rate 0.48% among 73,000; AID 926, 2007; active = well fitted activation curve of enough size with the parental cells flat; inconclusive = any curve in the parental cells; inactive = parental cells flat and receptor cells flat or falling; also: potency is read from the fitted curve at half-maximal effect; % of control where 0% means no effect; weak receptor curves with flat parental cells got no call and are not listed
Target sequence (P16473 whole entry, looked up): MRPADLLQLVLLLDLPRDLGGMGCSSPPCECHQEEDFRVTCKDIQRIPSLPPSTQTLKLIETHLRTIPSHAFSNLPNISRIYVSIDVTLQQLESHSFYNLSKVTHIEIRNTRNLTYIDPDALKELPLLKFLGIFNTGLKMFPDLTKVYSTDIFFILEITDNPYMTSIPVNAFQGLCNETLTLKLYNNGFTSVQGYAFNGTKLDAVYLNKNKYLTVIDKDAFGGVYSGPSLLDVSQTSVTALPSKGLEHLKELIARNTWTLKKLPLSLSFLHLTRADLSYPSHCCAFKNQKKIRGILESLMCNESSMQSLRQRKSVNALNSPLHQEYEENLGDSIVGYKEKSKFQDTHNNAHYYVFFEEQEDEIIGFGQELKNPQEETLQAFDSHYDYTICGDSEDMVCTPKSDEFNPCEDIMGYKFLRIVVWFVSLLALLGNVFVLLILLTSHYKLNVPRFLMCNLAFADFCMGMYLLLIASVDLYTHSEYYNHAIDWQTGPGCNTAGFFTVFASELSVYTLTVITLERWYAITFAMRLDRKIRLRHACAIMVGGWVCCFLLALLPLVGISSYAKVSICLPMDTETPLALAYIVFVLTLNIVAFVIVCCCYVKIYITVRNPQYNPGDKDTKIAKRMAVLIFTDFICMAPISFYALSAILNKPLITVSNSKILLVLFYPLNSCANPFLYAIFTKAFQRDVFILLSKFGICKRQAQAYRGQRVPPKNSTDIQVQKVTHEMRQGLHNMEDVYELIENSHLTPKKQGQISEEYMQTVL
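HEK 293 cells stably expressing TSHR and a cAMP-gated CNG channel; parental CNG-only cells as counterscreen. Cells preloaded 60 min with membrane potential dye plus 100 uM RO 20-1724, then compound 30 min; fluorescence read at 590 nm.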
A488 autofl: qHTS Assay for Spectroscopic Profiling in A488 Spectral Region. max dye equivalency, M. hit rate 0.1% among 59,000. compound autofluorescence, A488 spectral region, dye equivalency; hits give high values; active = above 10 nM dye equivalent; inconclusive = 1 to 10 nM; inactive = 1 nM or less; about half of its hits are not listed in these tables;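 also: highest value over a series up to 38 µM; compound alone in buffer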
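Intrinsic compound fluorescence is measured in 100 mM Tris buffer at pH 8.0 following 15 min incubation at room temperature. Intensities at 480 nm excitation/540 nm emission are calibrated to an on-plate A488 concentration series, giving dye-equivalent concentrations.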
AID923: qHTS Assay for Allosteric/Competitive Inhibitors of Caspase-1: Spectroscopic Profiling in AFC Spectral Region | compound fluorescence, AFC spectral region (405/520 nm); almost no hit is shown here | hit rate 1.1% among 75,000 | Potency, µM (doses to about 57.5 µM), for the others: at the highest dose fluorescence increase, actives largely listed as activators; active = well fitted activation curve with a large enough effect; inconclusive = small, poorly fitted or top-dose-only effect;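 also: potency is read from the fitted curve at half-maximal effect; 0% is about no effect; scaled to a free AFC standard on each plate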
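Compound autofluorescence profiled at 405 nm ex/520 nm em during kinetic caspase 1 run (50 nM enzyme, 5 uM Ac-WEHD-AFC, HEPES pH 7.5, 10 mM DTT). Titration up to 57 uM; baseline from regression intercept, normalized to AFC standard curve.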
A647 fluor: qHTS Assay for Spectroscopic Profiling in A647 Spectral Region; Compound fluorescence, A647 channel (570/671 nm), Tris buffer; max dye-equivalent concentration, M; 59,000 tested, under 10 active; active means above 1 µM dye equivalent; inconclusive means 0.1 to 1 µM; inactive means 0.1 µM or less;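 also: values scaled relative to a standard on each plate; highest value over a series up to 38 µM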
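Tris 100 mM pH 8.0; cpd + A647 stds pin-transferred; 15 min RT; CCD imager, ex 570/em 671. Output = A647-equivalent conc. per cpd conc.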
Resorufin fluor: qHTS Assay for Spectroscopic Profiling in Resorufin Spectral Region | Compound fluorescence, resorufin region 547/598 nm, buffer; hits give high values | max dye-equivalent concentration, M | hit rate 0.04% among 59,000; active = above 10 nM dye equivalent; inconclusive = 1 to 10 nM; inactive = 1 nM or less; a few of its hits are not listed in these tables; also: highest value over a series up to 38 µM
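Dye-equivalent concentration values derive from comparing each well's 547/598 nm fluorescence against resorufin standards included on every plate. Incubation was 15 min at room temperature in 100 mM Tris, pH 8.0.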
* = called active by the depositor; i = inactive; ? = inconclusive; . = not tested or not shown; & = joins results of further samples; [ ] = remark or other dose. The list is partial, so the mix of outcomes need not match the whole.

The first 13 entries, ahead of the listing:
SMILES	TSHR agonist	A488 autofl	AID923	A647 fluor	Resorufin fluor
CCOc1ccccc1C1CC(=O)Nc2cc(OC)c(OC)c(OC)c21 (configuration not stated)	.	i	-1.9%	3.3e-08	i
CCOC(=O)C1=C(C)OC(N)=C(C#N)C1c1ccoc1 (configuration not stated)	3%	.	6.2%	.	.
COC(=O)CN(c1ccc(F)cc1)S(=O)(=O)c1ccc2c(c1)OCCO2	29%[11.4 µM]	.	-2.2%	.	.
Cc1cc(C)n2nc(C(=O)N3CCOCC3)nc2n1	-2%	i	1.1%	2.8e-09	i
CSCCC(NC(=O)c1ccco1)C(=O)OCC(=O)Nc1sccc1C#N (configuration not stated)	0%	i	3.3%	4e-08	i
Nc1nnnn1/N=C/C=C/c1ccccc1	3%	i	-0.4%	2.3e-08	i
Cc1ccc(CNC(=O)C2CC(=O)N(C3CCCCCCC3)C2)cc1 (configuration not stated)	19%	i	0.1%	1e-09	i
COCCn1c(C)cc(C(=O)CSc2ncnc3sc4c(c23)CCC4)c1C	23%	i	1.0%	1.3e-09	i
CCOC(=O)C1CCCN(C(=O)c2sc3nc(-c4ccc(F)cc4)cn3c2C)C1 (configuration not stated)	13%	i	0.9%	4.1e-09	i
Cn1c(=O)n(CC(=O)Nc2ccccc2)c2ccccc21	.	i	.	1e-09	i
COc1ccc(NC(=O)C(Cc2ccccc2)NC(=O)c2ccco2)cc1OC (configuration not stated)	?	i	-2.5%	1.9e-09	i
CCCS(=O)(=O)O	-3%[11.4 µM]	i	-2.7%[11.5 µM]	7.7e-09	i
CC(=O)N1CCc2cc(S(=O)(=O)NCCC(=O)NCCc3ccc(C)cc3)ccc21	9%	i	1.0%	1.6e-09	i

Results, from the start:
SMILES	TSHR agonist	A488 autofl	AID923	A647 fluor	Resorufin fluor
CCOc1ccccc1C1CC(=O)Nc2cc(OC)c(OC)c(OC)c21 (configuration not stated)	.	i	-1.9%	3.3e-08	i
CCOC(=O)C1=C(C)OC(N)=C(C#N)C1c1ccoc1 (configuration not stated)	3%	.	6.2%	.	.
COC(=O)CN(c1ccc(F)cc1)S(=O)(=O)c1ccc2c(c1)OCCO2	29%[11.4 µM]	.	-2.2%	.	.
Cc1cc(C)n2nc(C(=O)N3CCOCC3)nc2n1	-2%	i	1.1%	2.8e-09	i
CSCCC(NC(=O)c1ccco1)C(=O)OCC(=O)Nc1sccc1C#N (configuration not stated)	0%	i	3.3%	4e-08	i
Nc1nnnn1/N=C/C=C/c1ccccc1	3%	i	-0.4%	2.3e-08	i
Cc1ccc(CNC(=O)C2CC(=O)N(C3CCCCCCC3)C2)cc1 (configuration not stated)	19%	i	0.1%	1e-09	i
COCCn1c(C)cc(C(=O)CSc2ncnc3sc4c(c23)CCC4)c1C	23%	i	1.0%	1.3e-09	i
CCOC(=O)C1CCCN(C(=O)c2sc3nc(-c4ccc(F)cc4)cn3c2C)C1 (configuration not stated)	13%	i	0.9%	4.1e-09	i
Cn1c(=O)n(CC(=O)Nc2ccccc2)c2ccccc21	.	i	.	1e-09	i
COc1ccc(NC(=O)C(Cc2ccccc2)NC(=O)c2ccco2)cc1OC (configuration not stated)	?	i	-2.5%	1.9e-09	i
CCCS(=O)(=O)O	-3%[11.4 µM]	i	-2.7%[11.5 µM]	7.7e-09	i
CC(=O)N1CCc2cc(S(=O)(=O)NCCC(=O)NCCc3ccc(C)cc3)ccc21	9%	i	1.0%	1.6e-09	i
Cc1onc(-c2ccccc2)c1C(=O)Nc1nnc(N2CCCCCC2)s1	7%	.	-1.8%	.	.
Cc1noc(C)c1COC(=O)c1ccc(S(=O)(=O)NCc2ccco2)cc1	?	i	-0.2%	2e-08	i
COC(=O)c1ccccc1NC(=O)CN(C)S(=O)(=O)c1cc(C)ccc1OC	?	i	-1.9%	4.6e-08	i
Cc1c(N(C)C(=O)C2CCCN2S(=O)(=O)c2ccccc2)c(=O)n(-c2ccccc2)n1C (configuration not stated)	4%	i	-0.8%	1.4e-08	i
CCCCn1c(SCC(=O)N(CC)C2CCS(=O)(=O)C2)nnc1C(CC)N(C)C (configuration not stated)	-1%	i	-0.8%	1.6e-09	i
CC1(C)NC(=O)N(CCOCCSc2ccccc2)C1=O	-3%	i	-1.7%	1e-09	i
Cc1cc(=O)[nH]c(SCC(N)=O)c1C#N	?	i	-0.3%	3.4e-08	i
CC(=O)N1c2ccccc2N(Cc2ccc(C)cc2C)C(=O)C1(C)C	?	.	0.1%	.	.
Cc1cc(Nc2ccc(N=Nc3ccc(O)c4ncccc34)cc2)nc(C)n1	4%[11.4 µM]	i	2.1%[11.5 µM]	3.6e-08	i
O=C(O)CSc1nnc(-c2cc3ccccc3o2)n1-c1ccccc1	-3%	i	-1.1%	1e-09	i
CCOc1ccc(-n2c(SCC)nc3c(c2=O)SCC3)cc1	?	i	0.9%	1.2e-09	i
COc1ccc(CCNC(=O)CS(=O)Cc2nc(-c3cccs3)oc2C)cc1OC (configuration not stated)	?	i	0.3%	1.7e-09	i
Additional entries:
SMILES	TSHR agonist	A488 autofl	AID923	A647 fluor	Resorufin fluor
CCOC(=O)Nc1ccc2c(c1)N(C(=O)CN(CC)CC)c1ccccc1C=C2	12%	i	-0.9%	1.3e-08	i
N=c1n(Cc2ccc(Cl)cc2)c2ccccc2n1CC(O)c1ccco1 (configuration not stated)	34%	i	3.6%	2.2e-08	i
Oc1ccc2ccccc2c1Cc1c(O)ccc2ccccc12	6%[11.4 µM]	i	6.0%[11.5 µM]	4.8e-08	i
CSc1ccccc1C(=O)NCCSC(C)(C)C	9%	i	0.5%	1.4e-09	i
CCCNC(=O)Nc1cc(OCC)c(N2CCOCC2)cc1OCC	-1%	.	3.2%	.	.
CC1(C)CC(=O)c2sc(N)nc2C1	3%	i	-0.4%	2.4e-08	i
O=C(Nc1ccc(O)cc1C(=O)O)c1ccc2c(c1)C(=O)N(Cc1ccco1)C2=O	?	i	-2.2%	3.7e-09	i
COc1ccccc1C(=O)N1CCNC(=O)C1CC(=O)Nc1ccc(Cl)cc1 (configuration not stated)	?	i	3.8%	7.1e-09	i
O=C(Nc1cccc2ncccc12)c1ccc2c(c1)OCCO2	8%	i	-1.5%	4.2e-08	i
COCCNC(=O)C(c1cccs1)N(C(=O)Cn1nnc2ccccc21)c1cccc(C)c1 (configuration not stated)	7%	i	1.9%	1e-09	i
CC(NC(=O)CSc1n[nH]c(=O)n1C1CC1)C12CC3CC(CC(C3)C1)C2 (configuration not stated)	3%	i	0.3%	3.9e-08	i
CCOC(=O)C1CCN(S(=O)(=O)c2nc3nc(C)cc(C)n3n2)CC1	6%	i	0.7%	8.9e-09	i
O=C1O[C@H]([C@@H](O)CO)C(O)=C1O	6%	.	4.4%	.	.
COCCn1c(=O)c(C)nc2cnc(N3CCN(C)CC3)nc21	.	i	12%	3.7e-09	i
CCn1cc(C(=O)NCC2CCCO2)c(=O)c2cc(S(=O)(=O)N(C)C3CCCCC3)ccc21 (configuration not stated)	3%	.	1.9%	.	.
CCOC(=O)C1CCCn2c1nc1sc3c(c1c2=O)CCCC3 (configuration not stated)	3%	i	-1.1%	2.5e-09	i
COc1ccccc1-n1cnnc1SCC(=O)c1ccc[nH]1	0%	i	-0.1%	1e-09	i
CCCCN1C(=O)C(O)(CC(=O)c2ccco2)c2cc(Br)ccc21 (configuration not stated)	6%	.	-1.7%	.	.
CCOC(=O)c1ccccc1NC(=O)COC(=O)C1=COCCO1	?	i	-0.5%	1.6e-08	i
COc1ccc(CN(C(=O)CN2C(=O)C(C)Oc3ccccc32)C2CCCC2)c(OC)c1 (configuration not stated)	?	i	-0.5%	1.8e-08	i
O=C(O)CCn1c(=O)[nH]c2ccccc2c1=O	0%	.	-0.5%	.	.
Clc1ccccc1-c1cncnc1NCCN1CCOCC1	?	i	1.1%	2.8e-09	i
O=C(COc1ccccc1)N1CCc2ccccc2C1	18%	i	9.0%	1e-09	i
CCCCN(C)CCCNC(=O)CC1Oc2ccccc2NC1=O (configuration not stated)	2%	.	-0.2%	.	.
Cc1cc(Cl)c(S(=O)(=O)NCc2cccnc2)cc1OCC(N)=O	-6%	i	0.5%	1.4e-09	i
(further entries)
SMILES	TSHR agonist	A488 autofl	AID923	A647 fluor	Resorufin fluor
CCOc1nc(-c2ccccc2)ccc1-c1noc(-c2ccc(OC)c(OC)c2)n1	.	i	0.5%	5.5e-09	i
O=C(CCCOc1ccccc1)Nc1nncs1	7%	i	-1.6%	1.2e-09	i
Cc1c(N(C)C(=O)c2ccccc2F)c(=O)n(-c2ccccc2)n1C	3%	i	-0.6%	1e-09	i
Cc1ccc(C)c(N(CC(=O)NCCSCc2ccco2)S(C)(=O)=O)c1	-3%	i	4.3%	5.2e-08	i
CS(=O)(=O)N(CC(=O)NCC1CCCO1)Cc1ccc(Cl)cc1 (configuration not stated)	19%	i	0.1%	2.9e-08	i
O=C(NCc1ccccn1)C1CCN(S(=O)(=O)c2ccccc2)CC1	-2%[11.4 µM]	i	0.7%	4.4e-08	i
COc1ccc(CNC(=O)COC(=O)c2c[nH]c(=O)[nH]c2=O)cc1OC	0%	i	-1.9%	1.3e-08	i
CCn1cc(C(=O)NCc2ccco2)c(=O)c2cc(S(=O)(=O)N3CCC(C)CC3)ccc21	3%	i	0.6%	3.6e-09	i
Cc1cc(C)nc(N2CCC(C(=O)NCCc3ccc(F)cc3)CC2)n1	1%	i	0.6%	4.5e-08	i
CCC1CCCCN1C(=O)CSc1nnc(-c2ccc(Cl)s2)o1 (configuration not stated)	?	i	-0.2%	4.2e-08	i
CC1CCN(CC(O)COc2ccc(F)cc2)CC1 (configuration not stated)	?	.	3.5%	.	.
Cc1cc(=O)c2c(O)c(O)ccc2o1	1%	i	2.4%	3.4e-08	i
CC(C)NC(=O)N1CCC2(CC1)CCN(C(=O)c1ccco1)CC2	6%	i	1.9%	1e-09	i
COc1ccc(C(CNC(=O)c2ccc3c(c2)C(=O)N(CCC(C)C)C3=O)N2CCOCC2)cc1 (configuration not stated)	.	i	1.0%	1e-09	i
CN1CCC2(CC1)CCN(C(=O)c1cc(C(F)(F)F)cc(C(F)(F)F)c1)CC2	-4%	i	-0.9%	1.4e-09	i
O=C(c1ccc(COCC(F)(F)F)o1)N1CCCCCC1	-3%	i	-0.1%	2.1e-08	i
O=C(CSc1nc2ccccc2c(=O)n1-c1ccc(Cl)cc1)c1ccco1	?	i	0.5%	5.8e-09	i
NCCCCN	3%	i	0.2%&-2.0%	1e-08	i
CCOc1ccc(NC(=O)Cn2nnc(C(=O)NCc3ccccc3OC)c2N)cc1	10%	i	-2.4%	6.8e-09	i
Cc1cc(N2CCN(C(=O)c3ccco3)CC2)n2nc(-c3cccc(F)c3)cc2n1	4%	i	10%	5.8e-09	i
CCc1ccccc1NC(=O)c1cnc2scc(C)n2c1=O	0%	.	5.9%	.	.
O=C(CCCN1CCC(c2ccccc2)C1)c1ccc2c(c1)OCCO2 (configuration not stated)	3%	i	1.7%	3.6e-08	i
Cc1ccc(-c2noc(CCC(=O)NCCN3CCN(Cc4ccccc4)CC3)n2)cc1	?	i	-0.1%	4.7e-09	i
CCC(C)NC(=O)c1cc(OC)c(OC)c(OC)c1 (configuration not stated)	9%[11.4 µM]	i	-0.6%	1.2e-08	i
O=C(Nc1ccccn1)C12CC3CC(C1)CC(C(=O)Nc1ccccn1)(C3)C2	3%	i	1.3%	2.9e-08	i
N/C(=N\O)c1ccc(NC(=O)c2ccc(Br)o2)cc1	18%	i	-0.8%	2.9e-08	i
CCCn1c(=O)c2[nH]c(-c3ccccc3)nc2n(CCC)c1=O	-3%	.	-3.0%	.	.
Cc1cccnc1NC(=O)CCCN1C(=O)c2ccccc2C1=O	-1%	i	1.0%	2.3e-08	i

Screens from PubChem.
